NPYLR7 ag – agonists of mosquito NPYLR7 receptor, primary screen, cell-based, Aedes aegypti, calcium fluorescence, mosquito biting behavior; Aedes aegypti neuropeptide Y-like receptor 7 (NPYLR7); HEK293T NPYLR7/Galpha15, GCaMP6s calcium fluorescence; activation, % at 10 µM; hit rate 0.15% among 270,000; in the data active means activation above about 40%;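 further: 0% = vehicle and 100% = reference agonist at the receptor; some compounds past the cut are filed as inactive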
NPYLR7 ag max-min – second read-out of NPYLR7 ag, no call of its own (marks repeat the call); activation, %; measured here: Max-Min RFU normalised activation; some inactives read as strong as hits;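 span of the calcium signal over five minutes; 0% = vehicle and 100% = native peptide agonist; compound fluorescence can raise it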
* hit, by the source's call; & = joins results of further samples. These rows are one share of the data, so the mix of outcomes need not match the whole.

Values run as follows: NPYLR7 ag	NPYLR7 ag max-min
> Cc1ccsc1-c1nc(CN2CCN(S(N)(=O)=O)CC2)c(C)o1
→ 9	3
> COCCCNC(=O)CNS(=O)(=O)c1c(C)cc(C)cc1C
→ -1	-5
> Cc1ccnc(NCCNC2CCN(CC(C)C)CC2)c1
→ 1	1
> CCOc1ccc2nc(N3CCC(C(=O)N4CCN(C5CCCCC5)CC4)CC3)nc(C)c2c1
→ 13	4
> Cc1ccc(C(=O)Nc2ccc(N3CCNC(=O)C3)cc2)c(C)c1
→ -4	-4
> CNc1ccc(-c2cccc(C(=O)N(C)C)c2)cn1
→ 4	1
> Cc1ccc2c(Nc3ccc(OC(F)(F)F)cc3)c(C(=O)N3CCCC3)cnc2n1
→ 0	-3
> COC(=O)c1ccc2c(c1)C1CC(C)(O2)N(c2ccccc2)C(=S)N1 (stereo not given)
→ -1	-9
> CCOC(=O)c1c(NC(=O)c2ccc(F)cc2F)c(-c2ccc(OC)cc2)cn1Cc1ccccc1
→ 8	5
> Cc1ccc(C(=O)Nc2ccnn2CCC(C)C)cn1
→ -1	-2
> O=C(CC1CCC(=O)N1)NCc1cccnc1-n1cnc2ccccc21 (stereo not given)
→ 4	3
> CN(C)S(=O)(=O)c1ccc(C(=O)Nc2c3c(nn2-c2ccccc2)CSC3)cc1
→ -4	-7
> Cc1cccc(N2CCN(CC(=O)NC3(C)CCS(=O)(=O)C3)CC2)c1C (stereo not given)
→ 8	3
> Cc1cc(-c2nn3c(C(F)(F)F)nnc3s2)n[nH]1
→ -6	-16
> COc1ccc(CCN(C)C2CCCN(C(=O)c3cscn3)C2)cc1OC (stereo not given)
→ 2&19	2&8
> Cc1noc(C)c1CN(C)Cc1ccc(C#CC(C)(C)O)s1
→ 4	1
> Cc1ccc2oc(-c3ccc(NC(=O)c4ccc(Cl)c([N+](=O)[O-])c4)cc3)nc2c1
→ 16	12
> O=C(Cn1cnc2ccccc21)NN=Cc1cccc(Br)c1
→ -6	-11
> CCOC(=O)C1CCCN(C(=O)c2coc(CN(Cc3ccc(F)cc3)Cc3cccc(F)c3)n2)C1 (stereo not given)
→ 23	31
> O=C(c1ccc(CSc2nc3ccc(Cl)cc3o2)cc1)N1C2CCC1CC(Oc1cccc(C(F)(F)F)c1)C2 (stereo not given)
→ 13	4
> O=C(NCc1ccccn1)c1ccc(CSc2nc(N3CCOCC3)cc(C(F)(F)F)n2)cc1
→ 5	17
> COc1ccc(CCN(C)C(=O)c2cncn2-c2ccc(-c3ccc(F)c(F)c3)cc2)cc1OC
→ 1	11
> Cn1c(C(=O)NCCC2=CCCCC2)cc2c(=O)n3ccccc3nc21
→ 0	-2
> COc1ccc(-c2ccc(C(=O)NC(C)c3cnn(-c4ccccn4)c3C)o2)cc1 (stereo not given)
→ -9	-11
> NC(Cc1c[nH]c2ccccc12)C(=O)O (stereo not given)
→ -10	-14
> Cn1c(=O)[nH]c(=O)c2[nH]c(N(Cc3ccccc3)Cc3ccccc3)nc21
→ 10	8
> C=C(C)CN(CC)Cc1c(C(=O)N(C)CCCC)nc2ccccn12
→ -3	0
> CC(C)(O)c1ccc(CN(Cc2ccc3c(c2)OCO3)CC2CCCO2)o1 (stereo not given)
→ -1	5
> Cc1ccc(-n2nnc3c(=O)n(Cc4ccccc4Cl)cnc32)cc1
→ 7	10
> CCOC1CC(C)(C)NC(=S)N1 (stereo not given)
→ -3	-6
> O=S(=O)(c1ccc2c(c1)OCCO2)N(Cc1ccc2c(c1)OCO2)C1CCCC1
→ 2	9
> COc1ccc(C2CC(=O)C3=C(C2)N=C(C)C(C#N)C3c2ccc3c(c2)OCO3)cc1 (stereo not given)
→ -7	-14
> Cc1[nH]n(-c2nc(-c3cccc([N+](=O)[O-])c3)cs2)c(=O)c1N=Nc1ccc(F)cc1
→ -5	-10
> CNC(=O)c1cc(Cl)cc(Cl)c1
→ 4&13	3&10
> Cn1cnnc1SCC(=O)NC1CC(=O)N(C2CCCCCC2)C1 (stereo not given)
→ 2	-2
> Cc1cccc(C(C2Sc3nc(C)nn3C2=O)N2CCN(C)CC2)c1 (stereo not given)
→ -1	-2
> C=CCn1c(=O)c2c(nc3n2C(C)C(C)=NN3CC(=O)OC)n(C)c1=O (stereo not given)
→ 8	11
> c1ccc(-c2csc(CCNCc3cn[nH]c3-c3ccc4c(c3)OCO4)n2)cc1
→ 14	6
> O=c1[nH]cc(CN2CCOC(Cc3cccc(C(F)(F)F)c3)C2)c(=O)[nH]1 (stereo not given)
→ 4	-6
> Cc1ccc(C)c(S(=O)(=O)N2CCC(c3nc(-c4ccc(Cl)cc4F)no3)CC2)c1
→ 28	16

4 entries picked at random from those above:
Values run as follows: NPYLR7 ag	NPYLR7 ag max-min
> O=C(c1ccc(CSc2nc3ccc(Cl)cc3o2)cc1)N1C2CCC1CC(Oc1cccc(C(F)(F)F)c1)C2 (stereo not given)
→ 13	4
> CCOC1CC(C)(C)NC(=S)N1 (stereo not given)
→ -3	-6
> O=S(=O)(c1ccc2c(c1)OCCO2)N(Cc1ccc2c(c1)OCO2)C1CCCC1
→ 2	9
> CNc1ccc(-c2cccc(C(=O)N(C)C)c2)cn1
→ 4	1

(more compounds)
Values run as follows: NPYLR7 ag	NPYLR7 ag max-min
> O=C(NN=Cc1cc(Br)ccc1O)c1cc(-c2cccs2)[nH]n1
→ 2	5
> c1ccc(-n2cccc2CNC2CCCc3nc(-c4cccnc4)ncc32)nc1 (stereo not given)
→ 18	10
> COc1ccc(C)cc1NC(=O)CSc1nc2c(-c3ccccc3)c[nH]c2c(=O)n1C1CC1
→ -1	-7
> c1ccc(-c2ncn(CCc3cccs3)c2C2CCOC2)cc1 (stereo not given)
→ -4	-4
> Cc1cc2cc(CNC(=O)Nc3cccc(Cl)c3)ccc2n1C
→ 8	11
> CCCCn1c(S(=O)(=O)CC(=O)N2c3ccccc3CC2C)n[nH]c1=O (stereo not given)
→ -5	17
> O=C(CNC(=O)c1ccccc1)OCC(=O)N1CCCC1=O
→ 5	4
> CCN(CC)C(=O)Oc1ccc2c(ccn2Cc2ccc(C)cc2)c1NC(=O)CSc1ccccc1
→ -2	3
> CCC(NC(=O)c1ccc(OC2CCN(Cc3ccccn3)CC2)cc1)c1ccc(F)cc1 (stereo not given)
→ 0	-2
> CS(=O)(=O)Nc1cc(Cl)c(Cl)cc1Cl
→ -7	-7

Four structures already listed, arranged by molecular weight, descending.
Values run as follows: NPYLR7 ag	NPYLR7 ag max-min
> CCC(NC(=O)c1ccc(OC2CCN(Cc3ccccn3)CC2)cc1)c1ccc(F)cc1 (stereo not given)
→ 0	-2
> Cc1cc2cc(CNC(=O)Nc3cccc(Cl)c3)ccc2n1C
→ 8	11
> O=C(CNC(=O)c1ccccc1)OCC(=O)N1CCCC1=O
→ 5	4
> CS(=O)(=O)Nc1cc(Cl)c(Cl)cc1Cl
→ -7	-7

2 consecutive records out of the list so far:
Values run as follows: NPYLR7 ag	NPYLR7 ag max-min
> CCC(NC(=O)c1ccc(OC2CCN(Cc3ccccn3)CC2)cc1)c1ccc(F)cc1 (stereo not given)
→ 0	-2
> CS(=O)(=O)Nc1cc(Cl)c(Cl)cc1Cl
→ -7	-7

Further entries follow.
structure,NPYLR7 ag,NPYLR7 ag max-min
O=C(CCc1nc(-c2ccc(Cl)cc2)no1)NC1CCOc2ccccc21 (stereo not given),2,-2
CC(NS(=O)(=O)c1cnn(C)c1)c1csc2ccccc12 (stereo not given),-6,-7
COCCNC(=O)c1ccc(NC(=O)c2cccc(OC)c2)cc1Cl,3,1
Cc1ccc[n+](CC(=O)c2ccc(-c3ccccc3)cc2)c1C,6,3
Cc1noc(-c2ccccc2)c1NC(=O)Nc1nc([C@@H]2O[C@H](CO)[C@@H](O)[C@H](O)[C@H]2O)cs1,9,13
CCN(CC)Cc1cc(NC2=NS(=O)(=O)c3ccccc32)ccc1O,3,0
O=C(CC1C(=O)NCCN1CC1CCCCC1)NCCOc1cccnc1 (stereo not given),-2,-3
CCOC(=O)C1CCCN(C(=O)CC(c2ccc(Cl)c(C(F)(F)F)c2)c2c[nH]c3ccccc23)C1 (stereo not given),4,5
Cc1ccc(-n2ncc3c(=O)n(NC(=O)Cc4ccc(Cl)cc4)cnc32)cc1,2,-1
Cc1noc(CNc2cc(Cl)ccc2Oc2ccccc2)n1,-6,-7
CCOC(=O)C1=C(C)NC(C)=C(C(=O)OCC)C1C(=O)OCc1ccc(C(=O)OC)o1,0,5
CC(C)=CCC/C(C)=C/c1c(-c2ccccc2)ncn1Cc1nnc(C)o1,19,6
CC(C)(C)c1cc2nc(-c3ccccc3F)cc(C(=O)NC3CCN(Cc4ccccc4)CC3)n2n1,-7&24,-2&34
O=S(=O)(Nc1ccc(F)c(F)c1F)c1ccc2ccccc2c1,5,11
COC(=O)c1ccc(C2C(C(N)=O)C(=O)NC(O)(c3ccccc3)C2C#N)cc1 (stereo not given),5,0
CC(C)N(C(=O)COc1ccc(I)cc1)c1cccnc1,-2,-1
CC(C)N1CCC(N2CCN(Cc3cccn3-c3ccccn3)CC2CCO)CC1 (stereo not given),6,-4
COc1cccc(C2c3[nH]c4ccccc4c3CCN2Cc2ccc(Cl)s2)c1 (stereo not given),-5,-10
Cc1ccc(Oc2cc(-c3ccccc3)nc(SCc3cccc(C#N)c3)n2)cc1,2,12
COc1ccc(CNC(=O)c2cccnc2N2CCN(S(=O)(=O)c3ccc(OC)cc3OC)CC2)cc1,23,5
CNC(=O)c1ccc(N2C(=S)N(c3cnc(C#N)c(C(F)(F)F)c3)C(=O)C23CCC3)cc1F,-12,-14
CCOC(=O)C1(Cc2ccccc2)CCN(Cc2cccc(F)c2F)CC1,6,4
COCCCN(CC(=O)N1CCc2sccc2C1COc1cccc(OC)c1)C(=O)c1cccs1 (stereo not given),-5,1
Cc1ccc(C)c(NC(=O)CCN2CCC(OCc3cccnc3)CC2)c1,1,-2
C=CCn1c(=O)c(C(=O)Nc2ccc(C)cc2C)c(O)c2ccccc21,1,1
O=C(Nc1cccc(-c2cc3ccccc3[nH]2)c1)C1CCCN(Cc2ccc(CO)o2)C1 (stereo not given),-1,-4
COc1cccc(CN2C(=O)C3(SCCN3C(=O)Nc3ccc(C)c(Cl)c3)c3ccccc32)c1 (stereo not given),9,9
O=S1(=O)CCC(Nc2ncnc3cc(-c4ccc(Br)cc4)sc23)C1 (stereo not given),4&3,3&9
O=C(c1ccc(F)cc1)N1CCN(C(C(=O)N2CCCC2)C2CCCC2)CC1 (stereo not given),-7,-5
Cc1cc(OC(=O)c2ccc(S(=O)(=O)N3CCCCC3)cc2)c([N+](=O)[O-])c(=O)[nH]1,-5,-5
Cc1ccsc1C(=O)N1CCN2C(=O)CNC(=O)C2C1 (stereo not given),2,0
O=C(CNC(=O)C1CC1(c1ccccc1)c1ccccc1)NCc1ccccn1 (stereo not given),1,-2
COCCN1N=C(c2ccc(Cl)cc2)Cn2c1nc1c2c(=O)n(CCOC)c(=O)n1C,1,5
Cc1ccc(C)c(OCC(=O)N2CCN(S(=O)(=O)c3ccc(F)c(F)c3)CC2)c1,9,7
Cc1oc2cc(O)ccc2c(=O)c1-c1nc2ccccc2n1C,-13,-19
CCCc1nnc2sc(/C=C/c3ccccc3OC)nn12,6,7
CCc1ccc(-c2cc3c(=O)n(Cc4nc(-c5ccc(Cl)cc5)oc4C)ccn3n2)cc1,-1,-3
O=P1(Nc2ccc(F)cc2F)C=C(c2ccccc2)OC(c2ccccc2)=C1,5,5
CCn1ncnc1CN1CCC(c2nn(C)c(=O)n2-c2ccccc2)CC1,-5,-4
O=C(N1CCC2(CC1)N=CC1(CCCCC1)S2)C1(c2ccccc2)CC1,1,-1
CN(c1cc(C(=O)NCc2cccs2)c2ccccc2n1)C1CCCCC1,23,18
CC(C)Cc1ccc(CC(=O)O)cc1,-4,-10
O=C(NCc1coc(-c2ccccc2)n1)c1cn2c(n1)CNCC2,1,-4
c1cc[n+](CCC[n+]2ccccc2)cc1,-2,-10
COC(=O)CSc1nc(C(C)(C)C)cc(C(F)(F)F)n1,3,1
COCCN(Cc1cnn(C)c1)C(=O)c1ccc2c(c1)OCO2,9,-4
CC1CN(CC(=O)Nc2c(C#N)cnn2-c2ccccc2)CC(C)(C)O1 (stereo not given),4,4
CC(=O)c1ccc(S(=O)(=O)N2CCC(CCc3ccc(C(F)(F)F)cc3)CC2)cc1,4,15
CCSc1nnc(NC(=O)/C=C/c2ccccc2)s1,-4,-10
CCC(NC(=O)C1(C#N)CCCCC1)c1ccccc1 (stereo not given),-10,-14
Cc1nn(C)c(C)c1CC(=O)Nc1ccc(N2CCC(O)CC2)cc1,-6,-9
O=C(NCc1cccs1)c1cncn1-c1cccc(-c2cccc(OC(F)(F)F)c2)c1,3,3
Cc1[nH]cnc1-c1nccn1CC(c1cccnc1)N1CCOCC1 (stereo not given),5,0
O=C(OCCN1C(=O)c2cccc3c(N4CCOCC4)ccc(c23)C1=O)c1ccccc1[N+](=O)[O-],-2,-8
Cc1ccc(S(=O)(=O)Nc2ccc3c(c2)OCCO3)c(Cl)c1,14,14
CCN(CC)c1onc(-c2ccccc2)c1CN(CCN(C)C)C(=S)Nc1ccc(F)cc1,3,2
CN1C(=O)c2ccc(NC(=O)c3c(F)cccc3F)cc2C1=O,1,0
Cc1cc(C)c(S(=O)(=O)NCCCN2CCOCC2)c(C)c1,2,2
COC(=O)c1cc(NC(=O)C2CC(=O)NC(=NCc3ccc(OC)cc3)S2)cc(C(=O)OC)c1 (stereo not given),-1,-6
